Assay outcomes: PubChem BioAssay, Sanford-Burnham Center for Chemical Genomics
Pyk2 oligo antag: Pyk2 (human) oligomerization antagonism; Q14289; Q293 cells, Pyk2 FERM NanoBiT luminescence; stronger effect = lower value; z-score (the deposit names both 25 µM and 10 µM); 99,000 tested, 0.83% active;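 active = Z-score of -3 or lower, scaled per plate to the spread of control and sample wells; inactive = z-score above -3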;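 note: negative z-score means lost luminescence so less FERM oligomerization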
MT1-MMP txn act: MT1-MMP promoter transcription activation. HT1080 MT1-MMP promoter luciferase reporter, luminescence, overnight; stronger effect = higher value. activation factor at 10 µM. 86,000 tested, 0.16% active;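 active = activation factor of at least 2 for MT1-MMP transcription at 10 µM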
PLAP act: human PLAP activation | P05187 | purified PLAP enzyme, luminescent substrate read-out; stronger effect = higher value | activation fold at 20 µM | 96,000 tested, 1.2% active | AID 696; in the data active = activation fold above about 2
Target sequence (P05187 whole entry, looked up): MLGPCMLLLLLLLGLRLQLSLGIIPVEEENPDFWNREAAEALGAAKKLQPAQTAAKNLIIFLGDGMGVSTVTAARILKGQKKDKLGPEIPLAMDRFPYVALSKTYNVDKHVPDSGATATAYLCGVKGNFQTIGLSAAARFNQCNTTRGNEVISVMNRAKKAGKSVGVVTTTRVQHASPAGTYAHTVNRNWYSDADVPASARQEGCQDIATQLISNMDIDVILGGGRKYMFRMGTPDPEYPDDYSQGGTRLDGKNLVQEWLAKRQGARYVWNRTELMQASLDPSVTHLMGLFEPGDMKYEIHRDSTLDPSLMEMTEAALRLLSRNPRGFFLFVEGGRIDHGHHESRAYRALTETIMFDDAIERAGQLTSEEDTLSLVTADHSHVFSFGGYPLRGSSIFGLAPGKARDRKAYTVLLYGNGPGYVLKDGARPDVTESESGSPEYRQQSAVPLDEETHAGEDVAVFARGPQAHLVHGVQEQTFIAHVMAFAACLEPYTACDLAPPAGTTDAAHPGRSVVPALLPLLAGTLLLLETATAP
CD11b adhes enh: increases human CD11b/CD18 adhesion to fibrinogen | AID 1499 | activation, % at 10 µM | K562 CD11b/CD18 adhesion to fibrinogen, ATPlite luminescence | 93,000 tested, 0.07% active | P05107+P11215;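 active = 10 µM primary screen giving 50% or more activity, confirmed by 40% or more on retest at that dose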; note: strong numbers were not always called active; reference of the scale not given here
Mac1 fbg inh: blocks human CD11b/CD18 adhesion to fibrinogen | P05107+P11215 | K562 CD11b/CD18 adhesion to fibrinogen, ATPlite luminescence; Mn2+ added to activate the integrin | inhibition, % at 10 µM | 93,000 tested, 0.54% active;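 active = primary inhibition of 50% or more at 10 µM, then 40% or more on retest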; note: some results filed as inactive read as strong as hits
* hit, by the source's call; nt = no result given. This is a subset (hit frequency here may not be typical).

1. COC(=O)c1ccc(NC(=S)NC2CCCCC2)cc1
2. CCCC(=O)Nc1c(-c2cccs2)c(=O)c2ccccc2n1CC
3. O=C(O)CCCC(=O)Nc1ccc(Sc2ccc([N+](=O)[O-])cc2)cc1
4. Cc1sc(NC(=O)c2ccccc2)c(C(=O)NCCN(C)C)c1C
5. CCOC(=O)c1c(C)nc2sc3c(c2c1-c1ccc(OC)cc1)NC(c1ccccc1)NC3=O (stereo not given)
6. Clc1ccc(-c2noc(CN3CCN(c4ccccc4)CC3)n2)cc1
7. Cc1ccc(/C=N/NC(=O)c2cc3c(ccc4ccccc43)o2)cc1[N+](=O)[O-]
8. COC(=O)CSc1nnc(C)n1-c1cccc(OC)c1

Compound | 1 | 2 | 3 | 4 | 5 | 6 | 7 | 8
Pyk2 oligo antag | -0.71 | nt | -1.2 | -0.64 | -0.53 | -0.24 | -1.2 | 0.63
MT1-MMP txn act | nt | 1.1 | nt | nt | nt | 1 | nt | 1.2
PLAP act | 0.9 | 1 | 1.2 | 1.2 | 1.1 | 0.8 | 1 | 0.9
CD11b adhes enh | -4 | 2 | nt | nt | nt | -1 | nt | nt
Mac1 fbg inh | 23 | -12 | nt | nt | nt | -20 | nt | nt

Three entries out of the list above, arranged by the number in MT1-MMP txn act, smallest number first:
6. Clc1ccc(-c2noc(CN3CCN(c4ccccc4)CC3)n2)cc1
2. CCCC(=O)Nc1c(-c2cccs2)c(=O)c2ccccc2n1CC
8. COC(=O)CSc1nnc(C)n1-c1cccc(OC)c1

Compound | 6 | 2 | 8
Pyk2 oligo antag | -0.24 | nt | 0.63
MT1-MMP txn act | 1 | 1.1 | 1.2
PLAP act | 0.8 | 1 | 0.9
CD11b adhes enh | -1 | 2 | nt
Mac1 fbg inh | -20 | -12 | nt

Next compounds:
9. COc1cc(C2C(C#N)=C(N)Oc3cc(O)ccc32)cc(OC)c1OC (stereo not given)
10. Cc1cc(C(F)(F)F)nc(SCC(=O)NC2=NC(=O)C(C)S2)n1 (stereo not given)
11. CC(C)C(=O)Nc1sc2c(c1-c1nc3ccccc3[nH]1)CCCC2
12. Cc1ccc(OC(=O)c2cccc(C(=O)Oc3ccc(C)cn3)n2)nc1
13. CC(C)(C)C(=O)N1CCc2cc(-c3csc(N)n3)ccc21
14. Cc1ccccc1NC(=O)c1cccc(Cn2cc(Br)c([N+](=O)[O-])n2)c1
15. CCOC(=O)C1=C(C)N(C)C(=S)NC1c1ccccc1Cl (stereo not given)
16. COc1cc(OC)nc(Oc2ccccc2C(=O)Oc2ccc(Cl)cc2)n1

Compound | 9 | 10 | 11 | 12 | 13 | 14 | 15 | 16
Pyk2 oligo antag | -0.16 | -0.53 | 0.58 | nt | -0.16 | -0.19 | -0.83 | -2.4
MT1-MMP txn act | 0.7 | 1 | 1.3 | 1.1 | nt | nt | nt | nt
PLAP act | 0.9 | 1 | 1 | 1.6 | 1.2 | 1 | 1 | 0.8
CD11b adhes enh | nt | nt | 11 | -1 | nt | 14 | 0 | nt
Mac1 fbg inh | nt | nt | -6 | 21 | nt | 8 | 0 | nt

17. Cc1ccc([N+](=O)[O-])cc1N=C(c1cccc([N+](=O)[O-])c1)N1CCOCC1
18. COc1ccc(OC)c(NC(=O)c2c3c(nc4ccccc24)CCC3)c1
19. Cc1ccc(C(=O)Nc2nccc(-c3cccs3)n2)cc1
20. CC(=O)Nc1ccc(NC(=O)CSc2nnc(-c3ccco3)n2Cc2ccco2)cc1
21. COC(=O)Cn1c(=O)c2c(nc(Br)n2Cc2ccccc2Cl)n(C)c1=O
22. CC(C)N=C(NC#N)SCc1ccc(Br)cc1
23. O=C(N/N=C/c1ccncc1)c1nc(-c2ccccc2)n2c1CCCCC2
24. O=C(NC(=S)Nc1ccc2c(c1)OCO2)c1ccccc1

Compound | 17 | 18 | 19 | 20 | 21 | 22 | 23 | 24
Pyk2 oligo antag | -1.4 | 0.37 | 0.58 | 2.4 | 0.98 | -1.9 | -1.2 | -0.21
MT1-MMP txn act | nt | nt | nt | 1.3 | 0.9 | 1.3 | nt | nt
PLAP act | 1.3 | 1.1 | 0.7 | 0.9 | 1.1 | 1.1 | 1.2 | 1
CD11b adhes enh | nt | nt | nt | 0 | nt | nt | nt | nt
Mac1 fbg inh | nt | nt | nt | 3 | nt | nt | nt | nt

An excerpt from above with just Pyk2 oligo antag and CD11b adhes enh.
No.	smiles	Pyk2 oligo antag	CD11b adhes enh
19	Cc1ccc(C(=O)Nc2nccc(-c3cccs3)n2)cc1	0.58	nt
21	COC(=O)Cn1c(=O)c2c(nc(Br)n2Cc2ccccc2Cl)n(C)c1=O	0.98	nt
23	O=C(N/N=C/c1ccncc1)c1nc(-c2ccccc2)n2c1CCCCC2	-1.2	nt
20	CC(=O)Nc1ccc(NC(=O)CSc2nnc(-c3ccco3)n2Cc2ccco2)cc1	2.4	0
24	O=C(NC(=S)Nc1ccc2c(c1)OCO2)c1ccccc1	-0.21	nt

Further structures:
25. CC(=O)NN1C(=O)/C(=C\c2ccc(C)cc2)SC1=S
26. O=C(NCC(c1cccnc1)N1CCOCC1)Nc1ccccc1 (stereo not given)
27. Cc1[nH]c2ccccc2c1C(=O)/C=C/c1ccccc1
28. Cc1cc(=O)[nH]c(-n2nc(C)cc2C)n1
29. COc1cccc(OCC(=O)NC2CCCCC2)c1
30. O=C1Nc2ccccc2C(=O)C1(Cl)Cc1ccccc1 (stereo not given)
31. CCN(CC)CC(=O)c1c[nH]c2ccc(OC)cc12
32. COc1ccc(NC(=O)c2c(C(F)(F)F)nn(C)c2SCc2ccccc2)cc1

Compound | 25 | 26 | 27 | 28 | 29 | 30 | 31 | 32
Pyk2 oligo antag | 1.3 | -0.6 | -1.9 | 0.17 | 1.6 | -0.49 | -0.09 | 0.9
MT1-MMP txn act | nt | 1.3 | nt | 0.9 | 1.2 | nt | 1.2 | nt
PLAP act | 1 | 0.9 | 0.9 | 1 | 1.2 | 0.9 | 1.3 | 0.8
CD11b adhes enh | nt | nt | -1 | 0 | 1 | nt | nt | nt
Mac1 fbg inh | nt | nt | -9 | -7 | 21 | nt | nt | nt

33. COc1ccc(C(=O)N/N=C2/SCC(=O)N2Cc2ccc3c(c2)OCO3)cc1OC
34. CC1(C)CC(=O)C2=C(C1)OC(N)=C(C#N)C2c1ccccc1OC(=O)N1CCOCC1 (stereo not given)
35. Nc1ccc(Cc2ccc(N)c(C(=O)O)c2)cc1C(=O)O
36. COc1ccc(C2(C)NC(=O)N(CC(=O)Nc3ccc4c(c3)OCO4)C2=O)cc1OC (stereo not given)
37. CCOc1ccc(C(=O)NN2C(=O)C3C4C=CC(O4)C3C2=O)cc1 (stereo not given)
38. Cc1nnc(SCCCn2c(N3CCN(c4ccccc4)CC3)nc3c2c(=O)[nH]c(=O)n3C)s1
39. Cc1ccc(OCC(=O)N/N=C\c2ccco2)c(C)c1
40. COc1ccc(NC(=O)CCC(=O)c2ccc(-c3ccccc3)cc2)cc1

Compound | 33 | 34 | 35 | 36 | 37 | 38 | 39 | 40
Pyk2 oligo antag | 0.49 | 0.6 | 0.05 | 0.16 | 0.81 | 0.14 | 0.21 | 0.58
MT1-MMP txn act | nt | 1 | nt | 1.1 | nt | 1.1 | 1.1 | nt
PLAP act | 1 | 1.1 | 0.9 | 0.9 | 1 | 1.3 | 1 | 1
CD11b adhes enh | nt | 2 | -1 | nt | -4 | nt | nt | nt
Mac1 fbg inh | nt | -15 | -18 | nt | -1 | nt | nt | nt

41. COc1cccc(-n2c(C)n[nH]c2=O)c1
42. O=C(c1ccccc1)c1nn(-c2cccc(Cl)c2)c2nc(-c3ccccc3)cc(=O)n12
43. Cc1ccccc1NC(=O)CSc1nnc(-c2ccccc2)n1-c1ccccc1
44. O=S(=O)(/N=C(\Sc1ccc(Cl)cc1)c1ccccc1)c1ccccc1
45. CCCC(=O)Nc1nnc(Cc2ccccc2)s1
46. COc1ccc(OC2C(=O)N(CCc3ccc(OC)c(OC)c3)C2c2ccc3c(c2)OCO3)cc1 (stereo not given)
47. CC1CCC(NC(=O)c2ccc(CS(=O)(=O)Cc3ccccc3F)o2)CC1 (stereo not given)
48. CC1C(=NO)C(C)C(c2ccc(N(C)C)cc2)NC1c1ccc(N(C)C)cc1 (stereo not given)
49. COc1ccccc1CC(=O)O/N=C(\N)Cc1cccc2ccccc12
50. O=C(C1CCCCN1S(=O)(=O)c1ccccc1)N1CCCCC1 (stereo not given)
51. Cc1cccc(C2NC(=O)c3c(sc(C)c3C)N2)c1O (stereo not given)

Compound | 41 | 42 | 43 | 44 | 45 | 46 | 47 | 48 | 49 | 50 | 51
Pyk2 oligo antag | -0.38 | -0.33 | -2.1 | -0.09 | -0.59 | -2.1 | -1.2 | -0.48 | -0.35 | 1.6 | -0.03
MT1-MMP txn act | nt | nt | 1.3 | 1.1 | 1.2 | nt | 1.1 | 1.2 | nt | 0.9 | 1.1
PLAP act | 0.9 | 0.9 | 0.8 | 1.1 | 0.9 | 1.4 | 0.9 | 1.4 | 1 | 1.2 | 1
CD11b adhes enh | nt | 5 | nt | nt | nt | 2 | nt | nt | 1 | nt | nt
Mac1 fbg inh | nt | -4 | nt | nt | nt | -7 | nt | nt | 5 | nt | nt

Seven structures already listed, sorted by formula weight, descending:
42. O=C(c1ccccc1)c1nn(-c2cccc(Cl)c2)c2nc(-c3ccccc3)cc(=O)n12
17. Cc1ccc([N+](=O)[O-])cc1N=C(c1cccc([N+](=O)[O-])c1)N1CCOCC1
40. COc1ccc(NC(=O)CCC(=O)c2ccc(-c3ccccc3)cc2)cc1
12. Cc1ccc(OC(=O)c2cccc(C(=O)Oc3ccc(C)cn3)n2)nc1
37. CCOc1ccc(C(=O)NN2C(=O)C3C4C=CC(O4)C3C2=O)cc1 (stereo not given)
22. CC(C)N=C(NC#N)SCc1ccc(Br)cc1
28. Cc1cc(=O)[nH]c(-n2nc(C)cc2C)n1

Compound | 42 | 17 | 40 | 12 | 37 | 22 | 28
Pyk2 oligo antag | -0.33 | -1.4 | 0.58 | nt | 0.81 | -1.9 | 0.17
MT1-MMP txn act | nt | nt | nt | 1.1 | nt | 1.3 | 0.9
PLAP act | 0.9 | 1.3 | 1 | 1.6 | 1 | 1.1 | 1
CD11b adhes enh | 5 | nt | nt | -1 | -4 | nt | 0
Mac1 fbg inh | -4 | nt | nt | 21 | -1 | nt | -7
